# CtBP-E1A blk: CtBP/E1A binding inhibition | actives 0.49% (n = 340,000) | activity change, % (concentration not given with the values) | AlphaScreen GST-E1A/His-CtBP binding, 1536-well; stronger effect = lower value; control for the full effect not named in the record; in the data active means activity change below about -65%; inconclusive means about -30% to -65%; inactive means above about -30%; note: % is set by controls: 0 for no effect and ±100 for the full control effect
#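 Homogeneous bead-based format: GST-tagged E1A captured on glutathione donor beads, His-tagged CtBP on nickel acceptor beads; compounds precede bead addition by 2 h at 37 °C.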
# D2 ag: agonists of human D2 dopamine receptor (beta-arrestin); AID 624465; DiscoveRx PathHunter D2 beta-arrestin, luminescence, 90 min; 100% = 57 uM dopamine signal; activation, % (concentration not given with the values); actives 0.084% (n = 360,000); P14416; in the data active = activation above about 40%; inconclusive = about 15% to 40%; inactive = below about 15%; note: compound concentration not given in the record; the text of the record calls up to 30% inactive
#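 Agonist mode: compounds alone added to overnight-plated D2 PathHunter cells for 90 min at 37 C, with 57 uM final dopamine (EC100) defining full response. Beta-arrestin recruitment detected by chemiluminescent reagent, read after 1 h at ambient temperature.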
# Six1-Eya2 blk: blocks human Six1 binding to Eya2. Q15475+O00167. AlphaScreen GST-Six1/His-Eya2 binding, biochemical; stronger effect = lower value; control for the full effect not named in the record. activity change, % (concentration not given with the values). actives 0.56% (n = 360,000); in the data active = activity change below about -65%; inconclusive = about -30% to -65%; inactive = above about -30%; note: % is set by controls: 0 for no effect and ±100 for the full control effect
# Target sequence (O00167 whole entry, looked up): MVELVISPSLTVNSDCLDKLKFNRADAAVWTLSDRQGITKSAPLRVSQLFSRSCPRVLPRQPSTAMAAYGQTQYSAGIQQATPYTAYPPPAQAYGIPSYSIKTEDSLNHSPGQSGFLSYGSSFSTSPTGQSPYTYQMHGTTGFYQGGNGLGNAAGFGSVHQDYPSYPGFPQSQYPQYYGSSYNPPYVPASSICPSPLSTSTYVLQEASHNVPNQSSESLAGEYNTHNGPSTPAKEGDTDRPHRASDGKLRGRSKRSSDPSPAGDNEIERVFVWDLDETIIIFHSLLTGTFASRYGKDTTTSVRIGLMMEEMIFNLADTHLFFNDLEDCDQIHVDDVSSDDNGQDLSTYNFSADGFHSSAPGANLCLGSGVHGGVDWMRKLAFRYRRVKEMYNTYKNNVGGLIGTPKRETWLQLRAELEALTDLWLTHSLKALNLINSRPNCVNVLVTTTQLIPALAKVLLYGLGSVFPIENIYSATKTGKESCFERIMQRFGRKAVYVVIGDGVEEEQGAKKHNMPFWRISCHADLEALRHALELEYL
# Target sequence (Q15475 whole entry, looked up): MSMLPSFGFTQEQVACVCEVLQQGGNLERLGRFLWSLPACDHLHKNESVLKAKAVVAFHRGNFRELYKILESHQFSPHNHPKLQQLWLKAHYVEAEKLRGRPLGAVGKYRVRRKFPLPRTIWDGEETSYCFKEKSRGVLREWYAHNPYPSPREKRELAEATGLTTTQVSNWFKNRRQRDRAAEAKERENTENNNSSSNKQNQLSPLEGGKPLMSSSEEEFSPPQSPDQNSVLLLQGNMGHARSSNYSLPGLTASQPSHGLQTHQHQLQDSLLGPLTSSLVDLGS
#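 AlphaScreen luminescence read after one hour at 37 °C in darkness. Pin-transferred compounds met GST-Six1 and His-Eya2 protein (5X stock 250 nM/500 nM) plus glutathione donor and Ni-chelate acceptor beads (5X, 50 ug/mL).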
# D2 potentiator: positive allosteric modulators of human D2 dopamine receptor. actives 0.23% (n = 360,000). P14416. DiscoveRx D2 beta-arrestin cells, luminescence, 90 min; 100% = 57 uM dopamine signal. potentiation, % (concentration not given with the values). AID 624464; active = potentiation of 50% or more; inconclusive = 30% to 50%; inactive = 30% or less;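 note: compound concentration not given in the record; tested on top of an EC20 dose of dopamine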
#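 PathHunter beta-arrestin assay in DiscoveRx D2 cells. Compounds were added with an EC20 of dopamine (50 nM final) for 90 min at 37 deg C. Luminescence was read 1 h after detection reagent, with 57 uM dopamine as the EC100 control.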
# PINK1 expr mod: changes PINK1 expression. actives 0.2% (n = 410,000). AID 624263. Potency, µM (highest dose often 76.6 µM), for inactives: top-dose activation (PINK1 increase), actives largely listed as activators. PINK1 immunofluorescence, high-content cytometry, 24 h; active = well fitted activation curve with a large enough effect; inconclusive = small, poorly fitted or top-dose-only effect; inactive = flat fitted curve, though single readings scatter; cell line not stated here;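 note: potency is the fitted concentration of half-maximal effect; % of control where 0% means no effect; nearly all actives have a fitted effect of over 65% in size; a mitochondrial uncoupler was the plate control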
#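 Decision-based qHTS: stable cells, 24 h exposure to five compound concentrations, CCCP as control. Fixed cells stained for PINK1 plus nuclear, mitochondrial and cell markers, cytometer read.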
# TRPML1 ag: activates the human TRPML1 channel; Q9GZU1; TRPML1-expressing cells, Ca2+ dye fluorescence, FDSS; host cell line not named in the record; reference of the full effect not given here; activation, % (no concentration beside the values); actives 0.12% (n = 410,000); AID 624414; in the data active = activation above about 50%; inconclusive = about 30% to 50%; inactive = below about 30%; note: 0% is about no effect; the text of the record puts the active cut at 80%
#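 TRPML1-DL cells, Tet-induced overnight (~16 h, 37 degrees C), loaded 45-90 min at room temperature with Ca8 no-wash calcium dye plus quencher. FDSS fluorescence: 10 s baseline, compound pin-transfer, 110 s agonist read, then EC80 54-4 (4uM final) and 110 s antagonist read.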
# Active calls of the source: *; ? = inconclusive; · = no result given; [ ] = remark or other dose.
SMILES,CtBP-E1A blk,D2 ag,Six1-Eya2 blk,D2 potentiator,PINK1 expr mod,TRPML1 ag
Cc1ccc(NC(=O)C2CCCC2)cc1Cl,7.6,-1.3,10.9,-4.8,0.6%,0.7
Cc1ccc(CCNC(=O)c2cc(-c3ccncc3)nc3ccccc23)cc1,-0.7,4.3,2.3,-4.8,-1.2%,1.4
CCCC(=O)N(Cc1cc2cc(OC)ccc2[nH]c1=O)c1ccc(OC)cc1,0.1,-1.2,-16.2,-15.7,0.1%,-1.3
COc1ccc(/C=N/n2cnnc2SCc2ccc(OC)cc2)cc1,-1.4,2.1,-1.4,-8.8,0.3%,0.8
COc1cccc(CNC(=O)Cn2cccc2C(=O)c2ccccc2C)c1,0.4,-6.5,-5.0,-0.7,1.0%,-1.7
CC(=O)N/C(=C\c1ccccc1)C(=O)OCC(=O)Nc1ccc(C)c(S(=O)(=O)N(C)C)c1,-9.3,6.7,-0.7,-1.5,0.0%,3.1
COc1ccc(F)cc1S(=O)(=O)N1CC(C)CC(C)C1 (stereo unspecified),8.1,-2.6,7.0,2.0,4.7%[38.3 µM],-0.5
COc1ccccc1C(=O)NCCC(=O)NC1CCCC(C)C1C (stereo unspecified),4.4,-2.4,5.5,-20.1,-0.7%,-0.4
O=C(Oc1ccc(C(=S)N2CCOCC2)cc1Cl)c1ccccc1F,·,-2.0,-9.8,-22.4,-0.5%,-0.1
COc1cccc(-c2csc(N3CCN(C(=S)Nc4cccc(Cl)c4)CC3)n2)c1,7.7,3.3,-16.6,-0.3,-2.0%[38.3 µM],0.5

# Limited to D2 ag and Six1-Eya2 blk, for 3 of the compounds above:
SMILES	D2 ag	Six1-Eya2 blk
CCCC(=O)N(Cc1cc2cc(OC)ccc2[nH]c1=O)c1ccc(OC)cc1	-1.2	-16.2
COc1ccccc1C(=O)NCCC(=O)NC1CCCC(C)C1C (stereo unspecified)	-2.4	5.5
COc1ccc(/C=N/n2cnnc2SCc2ccc(OC)cc2)cc1	2.1	-1.4

# The list continues.
SMILES,CtBP-E1A blk,D2 ag,Six1-Eya2 blk,D2 potentiator,PINK1 expr mod,TRPML1 ag
CCCCC(=O)NNC(=S)NC(=O)c1ccc([N+](=O)[O-])cc1,-7.2,-5.8,4.6,-9.1,-0.6%,0.5
CCC(CC)C(=O)Nc1cc([N+](=O)[O-])ccc1Cl,3.3,-5.1,0.0,-2.3,5.9%,-0.2
CCCC(C)NC(=O)CN1C(=O)c2cccc3cccc1c23 (stereo unspecified),9.0,-4.5,-5.9,-5.7,0.3%,-0.4
CN(CCOc1ccccc1)c1ccc(S(=O)(=O)N2CCCCC2)cn1,14.7,0.0,6.3,-10.5,-1.4%,0.7
O=C(Nc1c(-c2ccccc2)nc2ccccn12)c1cccs1,6.0,-6.4,-6.8,-3.6,-0.6%,-0.6
O=C(C=Cc1cccnc1)c1ccccc1,0.2,-3.0,1.6,16.1,-0.3%,0.9
O=C(CNC(=O)c1ccc(Br)o1)NNC(=O)c1ccccc1O,-2.0,2.6,-10.9,1.3,-2.4%,2.1
CN(CC(=O)Nc1ccccc1Br)C(=O)c1cccn1C,3.7,-2.4,-2.7,-27.9,1.2%,2.4
COc1ccc(C2(CCN=Cc3ccc(N(C)C)cc3)CCOC(C)(C)C2)cc1 (stereo unspecified),6.7,-1.5,-3.3,-4.7,-2.9%,-1.0
COc1ccc2nc3c(cc2c1)c(NC(=O)C1CCCO1)nn3CC(C)C (stereo unspecified),27.2,-1.1,43.6,-4.5,4.6%,1.8
COc1ccc(Br)c(OC)c1C(=O)NC(=O)Nc1c(F)cccc1F,3.6,-0.2,3.4,5.3,0.8%,·
Cc1ccc(S(=O)(=O)N2CCN(C(=O)COc3ccc(Br)cc3)CC2)cc1,8.4,-0.5,2.8,-6.4,-0.3%,1.8
CC12CCC(=O)N1C(C(=O)Nc1ccc(S(=O)(=O)N3CCCCC3)cc1)CS2 (stereo unspecified),3.4,1.9,-0.5,12.0,-3.7%,0.0
O=C(NCC(=O)N(c1cccc(F)c1)C(C(=O)NC1CCCC1)c1ccncc1)c1cccs1 (stereo unspecified),23.8,2.0,12.7,-8.2,0.1%,-0.9
CCC(C)(C)NC(=O)C(c1ccc(OC)cc1)N(C(=O)CCC(=O)Nc1cc(C)on1)c1ccc(F)cc1 (stereo unspecified),18.8,-2.2,-8.1,-8.9,5.2%,-0.8
N#CC1C(=O)NC(=O)C(C#N)C12CCCC(C(F)(F)F)C2 (stereo unspecified),-8.9,-5.4,3.1,-1.0,-4.3%,0.8
Cc1ccc(NC(=O)C2CCCN(S(=O)(=O)c3cccnc3)C2)cc1C (stereo unspecified),1.3,-3.2,3.9,-18.5,-1.0%,-0.7
CCOc1ccc(C2/C(=C(/O)c3ccc(OC)cc3)C(=O)C(=O)N2c2cc(C)on2)cc1OC (stereo unspecified),0.0,-2.9,-2.6,2.1,1.0%,-0.3
O=C(O)CCN1CC2([N+](=O)[O-])C=CC(=O)C([N+](=O)[O-])(C1)C2CC(=O)c1ccccc1 (stereo unspecified),7.2,0.7,-9.8,10.4,0.9%,-0.5
C/C(=N\O)C(C)(C)Nc1cccc(F)c1,·,-2.8,7.5,-11.9,1.0%,-1.0
COc1cc2cc(C(c3nnnn3C3CCCC3)N3CCc4ccccc43)c(=O)[nH]c2cc1OC (stereo unspecified),-18.0,2.3,-4.1,-4.5,7.5%,1.2
CCCCOCCCNC(=O)Cc1cccs1,6.7,-0.1,-1.4,1.1,0.4%[38.3 µM],4.1
Cc1ccc(C)c(N2CCN(C(=O)c3ccc4nc(N5CCOCC5)sc4c3)CC2)c1,-12.7,0.9,-9.2,-15.7,0.2%,-0.3
CCOc1ccc(-c2csc3ncn(-c4ccc(OC)cc4)c(=O)c23)cc1,-0.6,-3.4,2.9,-1.6,2.8%,-0.7
Cc1cccc(OCc2nc(-c3cccnc3)no2)c1,-4.4,-1.9,14.7,5.8,2.4%,0.3
O=C(/C=C(/c1ccc(Cl)cc1)n1cncn1)c1ccccc1,-3.6,-2.6,-7.7,9.4,1.6%,0.4
Cc1nnc(SCC(=O)Nc2cc(C(C)(C)C)nn2-c2ccccc2)s1,16.2,-5.9,0.4,9.8,1.3%,-1.4
CCNC(=S)N(Cc1c(C)noc1C)c1ccccc1,8.7,-0.3,9.5,-8.3,-2.7%,0.0
Cc1ccc(/C=C/c2onc(C)c2S(=O)(=O)N2CCC(C(=O)NC(C)(C)C)CC2)cc1,0.0,-5.6,-0.4,-4.9,2.6%,1.1
COc1cc([N+](=O)[O-])c2nccnc2c1,-4.0,2.1,-4.9,0.1,-0.1%,0.4
COc1ccccc1C(=O)NCCC(=O)NCC1CCCCC1,12.6,-7.9,4.0,-17.1,-1.1%,-0.4
Cc1n(CC(O)COCc2ccccc2)c2ccccc2[n+]1C (stereo unspecified),1.6,-2.6,-1.9,-9.1,3.3%[38.3 µM],-0.3
O=S(=O)(NC(=NCc1ccccc1)c1ccccc1)c1ccc(Br)cc1,2.9,-5.5,5.0,-11.9,-0.5%,1.1
CCOc1ccc(N2CC(C(=O)NC3CCCC3)CC2=O)cc1 (stereo unspecified),10.3,-3.2,5.7,-2.5,-0.7%,0.1
O=C(NCc1nnc2n1CCCCC2)c1ccc(Cl)cc1Cl,1.8,-1.2,2.1,-7.7,-2.0%,0.3
C=CCCC(=O)N1CCC(n2nccc2NC(=O)c2ccccc2C)CC1,5.5,-0.8,-2.0,-8.6,-2.3%,-0.2
CC1CCCC(C)N1C(=O)COC(=O)c1c[nH]c2ccccc12 (stereo unspecified),·,-3.5,1.6,-11.0,-1.9%,0.1
CCOC(=O)c1c(C)[nH]c(C)c1C(=O)COC(=O)C1CC(=O)N(CCc2ccccc2)C1 (stereo unspecified),2.6,-1.6,-11.9,0.4,0.7%,0.4
Cc1ccc2c(CN3CCOCC3)cc(=O)oc2c1,·,-1.4,-4.4,2.8,-0.3%,0.8
NC(=O)c1ccsc1NC(=O)c1ccc(S(=O)(=O)N2CCCC2)cc1,?,5.3,-9.1,10.0,2.8%,-0.7

# Look-ups from the list:
# For CtBP-E1A blk, CCC(CC)C(=O)Nc1cc([N+](=O)[O-])ccc1Cl reads 3.3
# For CtBP-E1A blk, Cc1ccc(S(=O)(=O)N2CCN(C(=O)COc3ccc(Br)cc3)CC2)cc1 reads 8.4

# Remaining list, next part:
SMILES,CtBP-E1A blk,D2 ag,Six1-Eya2 blk,D2 potentiator,PINK1 expr mod,TRPML1 ag
Cc1ccccc1-c1nc2sc3c(c2c(=O)o1)CCC3,-3.2,0.0,5.7,-5.5,1.4%,-0.1
Cc1ccsc1C(=CCCN1CCC[C@@H](C(=O)O)C1)c1sccc1C,0.5,-5.5,-4.2,3.3,0.1%,0.2
O=C(NS(=O)(=O)Oc1cccc(Cl)c1Cl)OC[C@@H]1CCCN2CCCCC12 (stereo partly specified),·,-1.2,0.6,-6.1,0.1%,0.7
Cc1ccc(C)c(NC(=O)C(CC(=O)O)C2CCCO2)c1 (stereo unspecified),·,-1.4,-1.0,10.4,1.3%,·
CC(=O)Nc1cccc(-c2ccnc3c2CC(C(=O)NCC2CCOCC2)O3)c1 (stereo unspecified),1.4,-1.3,-6.3,-4.7,14.5%,0.2
COc1ccc(C2OCC(C)([N+](=O)[O-])CO2)cc1 (stereo unspecified),1.9,-2.5,-5.5,-29.6,0.3%,0.0
Fc1ccc(N2CCN(Cc3cnc(Cl)s3)CC2)cc1,6.8,-0.5,-1.7,-13.8,2.5%,-1.6
CN(C)CCN1C(=O)c2ccccc2C1=O,-15.8,-0.8,8.8,-28.6,0.8%,-0.5
CC(C)(C)c1ccccc1N=Cc1ccc2ccccc2n1,0.7,-3.1,-1.5,-8.7,1.2%,0.1
O=C(COC(=O)/C=C/c1cccc(Br)c1)NCc1cccs1,·,-1.3,2.8,-12.5,6.2%,-2.0
CCc1nc2c(OCCOc3ccc(F)cc3)cccn2c1N(C)C(=O)c1ccc(C)cc1,-13.0,-4.5,0.6,-4.4,0.6%,-0.5
O=[N+]([O-])c1ccc(-c2nc(-c3ccncc3)no2)cc1,-14.9,2.6,-4.2,11.4,-1.8%,0.0
COCCN(Cc1nc2ccccc2c(=O)[nH]1)C(=O)COc1c(C)cc(Cl)cc1C,·,-1.3,4.7,-15.4,5.9%,-0.6
Cc1ccc(S(=O)(=O)N2CN(Cc3ccco3)c3nc4ccccc4nc32)cc1,-11.0,-1.4,-12.1,26.2,1.9%,0.0
N#CCCn1cc(C(=O)N2CCCCC2)c(-c2cccc([N+](=O)[O-])c2)n1,6.4,4.1,-0.8,-2.0,-2.3%,0.6
COCCNC(=O)/C(C#N)=C1\N=C(NC(=O)c2cccs2)c2ccccc21,0.6,0.0,-5.2,1.6,18.9%,-0.1
COc1ccc(C(=O)COc2ccc(NC(C)=O)cc2)cc1,11.8,-3.7,1.8,-7.2,-1.1%[38.3 µM],0.3

# Bioassay records deposited in PubChem by National Center for Advancing Translational Sciences (NCATS).
